Compound activity (PubChem BioAssay)
KCNQ2 block: KCNQ2 potassium channel inhibitors, primary screen, cell-based, CHO-K1, FluxOR thallium flux, B-score (AID 2156); Potassium voltage-gated channel subfamily KQT member 2 (Rattus norvegicus), O88943; 20 min; hits give low values; only compounds with negative scores are shown here; some inactives read as strong as hits; B-score at 10 µM; 1.1% of 310,000 active;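 active means fluorescence ratio B-score at most minus 3 library SDs, with starting brightness B-score within 2 library SDs, cut at about -5.5 in these data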
Target sequence (O88943 whole entry, looked up): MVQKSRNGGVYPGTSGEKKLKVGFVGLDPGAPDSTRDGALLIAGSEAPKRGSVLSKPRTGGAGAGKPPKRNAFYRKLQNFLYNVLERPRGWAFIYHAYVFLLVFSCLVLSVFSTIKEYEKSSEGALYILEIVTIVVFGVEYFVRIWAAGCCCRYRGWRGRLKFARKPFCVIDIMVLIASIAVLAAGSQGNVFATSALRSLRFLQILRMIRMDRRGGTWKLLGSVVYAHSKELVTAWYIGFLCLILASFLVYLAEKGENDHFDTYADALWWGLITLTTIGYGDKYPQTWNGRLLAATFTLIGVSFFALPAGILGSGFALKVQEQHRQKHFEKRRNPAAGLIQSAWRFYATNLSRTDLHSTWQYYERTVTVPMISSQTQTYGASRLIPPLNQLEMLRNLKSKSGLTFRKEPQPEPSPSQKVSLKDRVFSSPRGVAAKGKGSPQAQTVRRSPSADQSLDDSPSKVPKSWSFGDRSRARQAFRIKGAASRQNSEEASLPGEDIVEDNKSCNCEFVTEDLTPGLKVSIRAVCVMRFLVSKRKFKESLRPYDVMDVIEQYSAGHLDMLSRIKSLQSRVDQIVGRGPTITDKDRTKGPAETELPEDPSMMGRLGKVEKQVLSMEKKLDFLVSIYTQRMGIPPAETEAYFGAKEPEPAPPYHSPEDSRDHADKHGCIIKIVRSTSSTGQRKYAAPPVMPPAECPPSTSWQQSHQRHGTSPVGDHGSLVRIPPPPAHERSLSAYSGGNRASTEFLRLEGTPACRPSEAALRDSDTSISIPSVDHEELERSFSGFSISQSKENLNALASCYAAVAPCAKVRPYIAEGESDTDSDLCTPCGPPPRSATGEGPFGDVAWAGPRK
KCNQ2 block baseline: second read-out of KCNQ2 block, no call of its own (marks repeat the call); B-score; measured here: initial fluorescence intensity artifact check;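 brightness before thallium and not channel activity; 0 = typical well and far values either way flag optical interference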
* marks the source's active call; other numbers are inactive results; i = inactive.

KCNQ2 block,KCNQ2 block baseline,Molecule
-14*,-0.53*,CCc1ccc2c(c1)C1(NN=C(c3cccc4ccccc34)S1)C(=O)N2 (stereo unspecified)
i,-0.53,O=C(CNC(=O)c1ccc(Cl)cc1Cl)OCC(=O)c1ccc2c(c1)OCCO2
i,-1.9,COc1ccccc1C(=O)OC(C)CN1CCN(C)CC1 (stereo unspecified)
i,0.19,O=S(=O)(c1ccc(F)c2ccccc12)N1CCCCC1
i,-1.3,Cn1nnc2cc(C(=O)NCc3ccc4c(c3)OCO4)ccc21
i,1,COc1ccc(S(=O)(=O)Nc2c(C)nc3nc(C)[nH]n3c2=O)cc1
i,-0.79,CCOc1ccc(S(=O)(=O)N2CCN(C(=S)NCc3ccccc3)CC2)cc1
i,-0.93,O=C(O)Cn1cc(C(=S)N2CCCCC2)c2ccccc21
i,1.9,OC(Cn1cncn1)(Cn1cncn1)c1ccc(F)cc1F
i,0.12,O=C(O)CC(NC(=O)c1ccncc1)c1ccccc1 (stereo unspecified)
i,0.06,Nc1nc2c(c(=O)[nH]1)C(c1ccccc1)C1=C(N2)c2ccccc2C1=O (stereo unspecified)
i,0.93,CCc1ccc(C2CC(c3ccc(Cl)cc3)n3nc(N)nc3N2)cc1 (stereo unspecified)
i,-2.1,CC(=O)N/C(=C\c1ccccc1)C(=O)OCc1cccc(S(=O)(=O)N(C)C)c1
i,0.25,O=C(CCC1CCCN(C(=O)c2ccncc2)C1)NCc1ccc(F)c(F)c1 (stereo unspecified)
i,0.35,COc1ccccc1C(=O)NC(CCSC)C(=O)OCC(=O)NC(=O)NCc1ccco1 (stereo unspecified)

New compounds follow
KCNQ2 block,KCNQ2 block baseline,Molecule
i,-1,Cc1ncc(CO)c(/C=N/NC(=O)c2cc3c(s2)CCCC3)c1O
i,0.03,O=C(CN(Cc1cccs1)S(=O)(=O)c1ccc(S(=O)(=O)N2CCCCC2)cc1)Nc1ccccc1
i,-1.7,COc1cc(C=O)cc(Br)c1OCC(N)=O
i,-0.55,Cc1sc2c(c1C)CN(C(C)(C)C)CN2C(=O)c1ccccc1
i,2.3,CC(NO)C(C)(C)NO (stereo unspecified)
i,-0.07,Cn1c(-c2ccc(F)cc2)cnc1NCc1ccc(C#N)cc1
i,0.51,Cc1cccc(C(=O)N2CCCC(Nc3ccc(F)c(F)c3)C2)n1 (stereo unspecified)
i,1.1,COc1cccc(C(=O)Nc2cc(C)c3c(=O)oc4ccccc4c3n2)c1
i,0.47,O=C(CSc1nc(-c2ccccc2)nc2ccccc12)Nc1cccc(C(=O)O)c1
i,-0.57,COc1ccccc1N1CCN(C/C=C/c2ccc(N(C)C)cc2)CC1
i,1.7,Cc1ccc(C)c(NC(=O)Cn2nc([N+](=O)[O-])c(Br)c2C)c1
i,0.12,CCOc1ccc2nc(NC(=O)CN3CCC(n4nnc5cc(C(F)(F)F)ccc54)CC3)sc2c1
i,0.34,CCCn1c(SCC(=O)Nc2ccc(C)c(S(=O)(=O)N3CCOCC3)c2)n[nH]c1=O
i,2.4,Cc1cc(Nc2ccc(F)cc2C)n2nc(C)nc2n1
i,0.68,CCN(C(=O)C(=O)c1c[nH]c2ccccc12)c1ccccc1

One compound at a time, as listed above. Order of values: KCNQ2 block	KCNQ2 block baseline
`CCOc1ccc2nc(NC(=O)CN3CCC(n4nnc5cc(C(F)(F)F)ccc54)CC3)sc2c1` is entered as i	0.12
`Cc1ccc(C)c(NC(=O)Cn2nc([N+](=O)[O-])c(Br)c2C)c1` is entered as i	1.7
`Cn1c(-c2ccc(F)cc2)cnc1NCc1ccc(C#N)cc1` is entered as i	-0.07
`CCN(C(=O)C(=O)c1c[nH]c2ccccc12)c1ccccc1` is entered as i	0.68
`CC(NO)C(C)(C)NO` (stereo unspecified) is entered as i	2.3

(listing goes on)
KCNQ2 block,KCNQ2 block baseline,Molecule
i,-0.35,O=C1CN(C(=O)CSc2nc3cc(Cl)ccc3c(=O)n2Cc2ccccc2)c2ccccc2N1
i,-0.36,O=C(CSc1ccccn1)N1CCc2ccccc21
i,0.43,Cn1c2ccccc2c2cc(/C=N/NC(=O)c3ccc(N)cc3)ccc21
i,0.87,NC(=S)N/N=C/c1ccc2cccc(OCc3ccccc3)c2n1
i,-0.68,Cn1ccnc1SCC(=O)c1cccc(Br)c1
i,-1.6,CS(=O)(=O)N1CCN(c2c(Cl)cccc2[N+](=O)[O-])CC1
i,-0.8,O=C(Oc1ccc(-c2csnn2)cc1)C1CC1
i,0.44,Cn1c(=O)cc(SCC(=O)N2CCCC2)c2ccc(Cl)cc21
i,-1.4,Cc1ccc(S(=O)(=O)CC(=O)Nc2c(C)n(C)n(-c3ccccc3)c2=O)cc1
i,-0.71,O=S(=O)(c1ccc(Cl)cc1)N1CCN(CCc2ccccc2)CC1
i,-1.1,COc1cc(CN2CCN(c3cccc(C)c3C)CC2)cc([N+](=O)[O-])c1O
i,0.72,Cc1cc(-c2nnc(CCC(=O)NCCc3ccccc3F)o2)no1
i,0.75,N/C(=N\N=C\c1cccc(O)c1)c1nonc1N
i,0.4,Cc1ccc(S(=O)(=O)NCC(=O)OCC(=O)c2cc(C)n(-c3ccccc3)c2C)cc1
i,-1.6,COc1ccc2c(Cl)c(C(=O)NC3CCS(=O)(=O)C3)sc2c1 (stereo unspecified)

Reformatted comma-delimited: part of the list above.
SMILES,KCNQ2 block,KCNQ2 block baseline
Cc1cc(-c2nnc(CCC(=O)NCCc3ccccc3F)o2)no1,i,0.72
N/C(=N\N=C\c1cccc(O)c1)c1nonc1N,i,0.75
Cc1ccc(S(=O)(=O)NCC(=O)OCC(=O)c2cc(C)n(-c3ccccc3)c2C)cc1,i,0.4

The listing continues:
KCNQ2 block,KCNQ2 block baseline,Molecule
i,1.4,Cc1ccc(CNC(=O)Cn2cccc2C(=O)c2ccccc2C)cc1
i,0.58,O=C(COc1ccccc1)NNc1c2ccccc2nc2ccccc12
i,-0.44,COC(=O)c1ccccc1NC(=O)c1ccc(-c2ccccc2F)o1
i,0.09,COC(=O)C(Cc1ccc(O)cc1)N1Cc2ccccc2C1=O (stereo unspecified)
i,0.18,Cc1cc(C)cc(OCC(=O)N(Cc2cccs2)C2CCS(=O)(=O)C2)c1 (stereo unspecified)
i,0.84,O/N=C/c1ccc(-c2cc(Cl)ccc2Cl)o1
i,-0.08,CC(C)CN(C(=O)COC(=O)c1cnc(Cl)c(Cl)c1)c1c(N)n(Cc2ccccc2)c(=O)[nH]c1=O
i,1.6,CC(=O)c1sc(C(C)(C)C)cc1NC(=O)c1ccccc1C(=O)O
i,1.5,COc1cccc(NC(=O)CNC(C)CCC(C)C)c1 (stereo unspecified)
-6.8*,1.6*,Cc1ccc(O)c(C(=O)c2cnc3c(c2)COc2ccc(C)cc2-3)c1
i,2.3,COc1ccc(S(=O)(=O)n2cccc2)cc1OC
i,-1.1,O=C(C1=C[C@@H](C2CC2)C[C@@H](OCc2ccc(CO)cc2)O1)N1CCN(Cc2ccc3c(c2)OCO3)CC1
i,-1,COc1ccc(S(=O)(=O)Oc2cccc(C(=S)N3CCOCC3)c2)cc1
i,-1.2,CC(C)(C)c1ccc(OCC(=O)NNC(=O)Nc2ccccc2)cc1
i,-0.39,CCC(C)(C(=O)NC1CCCCC1)N(C(=O)Cc1cccs1)c1ccccc1 (stereo unspecified)

Next part (two carried over from the part before).
KCNQ2 block,KCNQ2 block baseline,Molecule
i,-1.2,CC(C)(C)c1ccc(OCC(=O)NNC(=O)Nc2ccccc2)cc1
i,-0.39,CCC(C)(C(=O)NC1CCCCC1)N(C(=O)Cc1cccs1)c1ccccc1 (stereo unspecified)
i,-0.07,Cn1nnnc1SCC(=O)N1CCN(c2ccc(Cl)cc2)CC1
i,-2.1,O=C(CCn1nc(-c2ccc(F)cc2)ccc1=O)NCc1ccccc1
i,0.64,NC(=O)COC(=O)CNC(=O)c1cc(Cl)cc([N+](=O)[O-])c1
i,-1,CCOC(=O)/C(C#N)=C/c1ccc(OCC(=O)Nc2ccc(OC)cc2)c(OC)c1
i,-0.16,Cc1cc(C)c(S(=O)(=O)N2CCOC2CNC(=O)C(=O)NCc2ccco2)c(C)c1 (stereo unspecified)
i,-0.13,COc1ccc(OC)c(N2C(=O)[C@@H]3C(c4ccccc4Cl)=NO[C@@H]3C2=O)c1
i,-1.5,Cc1oc2c(c(=O)c1C)C(=O)CC(c1ccccc1)C2 (stereo unspecified)
i,0.82,Cc1c(NC(=O)c2cccc(S(=O)(=O)N3CCOCC3)c2)c(=O)n(-c2ccccc2)n1C
i,0.84,CCOC(=O)[C@@H]1[C@H]2COc3cc(OC)ccc3[C@H]2N2C(=O)N(c3cccc(Cl)c3)C(=O)[C@@]12C
i,-1.2,CC(=O)NCN1CCN(CNC(C)=O)CC1
i,0.77,CCOC(=O)c1ccc(S(=O)(=O)NCC(C)(C)N2CCOCC2)cc1
i,-0.5,COc1ccc(OC)c(NC(=O)CN2C(=O)CSc3ccc(S(=O)(=O)N4CCCC4)cc32)c1
i,0.02,O=C(CC(c1ccccc1)c1ccccc1O)NCCN1CCOCC1 (stereo unspecified)
i,1.6,S=C(N/N=C/c1ccccc1)N1CCOCC1
i,-0.01,O=C(NCc1ccccc1OC(F)(F)F)C1CCC(=O)N(Cc2cccc(F)c2)C1 (stereo unspecified)

Next part:
KCNQ2 block,KCNQ2 block baseline,Molecule
i,0.72,O=C(CSc1nccc(=O)[nH]1)Nc1ccc(S(=O)(=O)N2CCOCC2)cc1
i,-2,Cc1ccnc(SCc2cc(=O)c(OC(=O)c3cc([N+](=O)[O-])ccc3Cl)co2)n1
i,-2.9,CC12CCC(=O)N1C(C(=O)OCC(=O)Nc1ccc(Cl)c(Cl)c1)CS2 (stereo unspecified)
i,1.3,O=C(Nc1ccccc1)N1CCSCC1
i,0.43,CCOc1ccc(CCNC(=O)c2cc3sc(Cl)cc3n2C)cc1OCC
i,2.2,Fc1cccc(NC(=S)N2CCc3ccccc32)c1
i,0.27,COCC(C)N1CCC(n2nccc2NC(=O)CCOc2ccccc2)CC1 (stereo unspecified)
-6.8*,0.91*,CCOC(=O)c1nn(C23CC4CC(CC(C4)C2)C3)c2c1C(=O)N(c1ccc(C)cc1)C2=O
-8*,-1.6*,Cc1ccc(CNC(=O)c2cn(C3CCCC3)c(=O)c3c2c2ccccc2n3C)o1
i,-1.4,NC(=O)c1ccsc1NC(=O)COC(=O)Cc1cccc2ccccc12
i,-1.3,O=C(CN1CCN(c2ccccc2O)CC1)NC(c1ccccc1)c1ccccc1
i,-0.85,Cc1occc1C(=O)Nc1ccc2c(c1)OCO2
i,-0.22,COc1ccc(CCN2C(=O)C3C4CC(C5C(C(=O)NN)=NOC45)C3C2=O)cc1OC (stereo unspecified)
i,1.2,Cc1cccc(-n2c(C)nc3cc(C(=O)NCc4ccc5c(c4)OCO5)ccc32)c1
i,0.34,O=[N+]([O-])c1nn(-c2ccccc2)[n+]([O-])c1N1CCN(c2ccccc2)CC1

Next part.
KCNQ2 block,KCNQ2 block baseline,Molecule
i,4.1,COc1ccc(NC(=O)CCCC(=O)O)cc1Cl
i,-0.25,CC(C)N1C(=O)N(c2cccc(Cl)c2)C(C)(O)CC1(C)C (stereo unspecified)
i,0.15,Cc1oc(C(=O)Nc2ccc(C(=O)O)cc2)cc1COc1ccccc1
i,0.6,Cn1cccc1-c1cc(C(=O)N/N=C/c2ccc([N+](=O)[O-])cc2)[nH]n1
i,-0.65,CCC(=O)N/N=C(\C)CC(=O)Nc1ccc(F)cc1
-8.4*,-3.4*,COc1ccccc1NC(=O)C(C)OC(=O)C1CCC(C(C)(C)C)CC1 (stereo unspecified)
i,-0.96,CNC(=S)N(CCc1cccc(C)c1)Cc1cc2cc(OC)c(OC)cc2[nH]c1=O
i,1.1,CN1CCN(c2ccccc2NC(=S)NC(=O)c2cc3ccccc3o2)CC1
i,0.48,O=C(/C(=N\Nc1ccc(Br)cc1)Sc1nnnn1-c1ccccc1)c1ccccc1
i,-2,Cc1n[nH]c(C)c1S(=O)(=O)N1CCC(C(=O)N2CCn3c2nc2ccccc23)CC1
i,-1.1,COc1cc2c(cc1OC)CN(C(=O)Nc1ccccc1Cl)CC2
i,-0.81,O=C(O)c1ccc2c(c1)-c1cc(C(=O)O)ccc1S2(=O)=O
i,1.3,Cc1nn(C)cc1C(C)NC(=O)c1cc(COc2cccc3cnccc23)on1 (stereo unspecified)
i,-0.12,COc1ccc(C(=O)NC2CC(C)(C)Cc3c2cnn3-c2ccccc2)cc1OC (stereo unspecified)
i,1.9,COC(=O)c1[nH]c2ccc(Cl)cc2c1NC(=O)Oc1ccccc1

(continued)
KCNQ2 block,KCNQ2 block baseline,Molecule
i,1.4,CC(C)(C)CC(C)(C)NC(=O)c1ccc2snnc2c1
i,-0.62,O=C(O)C1CSCN1S(=O)(=O)c1cccc2nsnc12 (stereo unspecified)
i,0.01,CCOc1ccc(CCNC(=O)CCCN2C(=O)c3ccccc3C2=O)cc1OCC
i,-1.5,CCOc1ncccc1C(=O)N1CCN(C(c2ccccc2)c2ccccc2)CC1
i,-0.94,O=C(c1ccc(Cl)c(S(=O)(=O)Nc2ccc(F)cc2)c1)N1CCN(c2ccccn2)CC1
i,2.8,Cc1ccc([N+](=O)[O-])cc1S(=O)(=O)Nc1ccc(C(=O)NCc2ccccn2)cc1
i,0.2,CC(SC1=NCCN1S(=O)(=O)c1ccccc1)c1ccccc1 (stereo unspecified)
i,-1.3,Cc1ccc(C(=O)NC2CCc3ccccc3C2=O)cc1 (stereo unspecified)
i,-2.7,Cc1ccc(S(=O)(=O)N(Cc2ccccc2)c2ccccc2C(=O)Nc2ccccc2C(=O)NCc2ccco2)cc1
i,0.74,COc1cc(C(=O)NC(C)c2cccc3ccccc23)cc(OC)c1OC (stereo unspecified)
i,0.37,COC(=O)c1nn(-c2cccc(Cl)c2)cc(OC)c1=O
i,0.47,CC(C)c1ccc(NC(=O)CSc2nc3ccsc3c(=O)n2Cc2ccc(C(=O)O)cc2)cc1

Not all compounds are listed; count on the stated rates, not on these rows.
